Screening results from PubChem.
Vaccinia stage: Vaccinia orthopox stage-specific inhibition; Vaccinia-infected cells, mCherry/Venus stage reporter fluorescence; stronger effect = lower value; some inactives read as strong as hits; activity change (mCherry), % (test concentration not listed); 0.01% of 89,000 active; AID 1053133;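 active = mCherry past -33% and 40 or more points under the early reporter, replicates agreeing; inconclusive = past -33% without that gap or agreement; tested in A549 cells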;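 also: scaled between vehicle wells and reference inhibitor wells; 23 nL library stock went into each well; one replicate is shown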
Vaccinia stage Venus: also measured in Vaccinia stage; calls as there; activity change (Venus), %; measured here: Venus reporter, other viral stage;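 negative = less Venus signal; first of two replicates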
The depositor's hits bear a star; ? = inconclusive; / = not tested or not shown; & = joins results of further samples. An excerpt, so the mix of outcomes need not match the whole.

Values run as follows: Vaccinia stage Venus	Vaccinia stage
1. C[C@H]1CN([C@@H](C)CO)C(=O)c2cccc(NS(=O)(=O)c3ccc(F)cc3)c2O[C@@H]1CN(C)Cc1ccc(-c2ccccc2)cc1
    -21.0	-28.4
2. COc1ccc(NC(=O)Nc2cccc3c2O[C@@H](CN(C)C(=O)Nc2ccc(F)cc2)[C@@H](C)CN([C@H](C)CO)C3=O)cc1
    12.9	20.7
3. CO[C@@H]1CN(C)C(=O)c2cc(NC(=O)C3CCC3)ccc2OC[C@H](C)N(Cc2ccc(F)cc2)C[C@@H]1C
    -14.7	-19.9
4. Cc1noc(C)c1NC(=O)N1C[C@H](O)COC[C@H]2O[C@H](CC(=O)NCC3CCCCC3)CC[C@@H]21
    3.6	9.2
5. CCCC(=O)N1CCC2(CC1)CN(C(=O)C1CCCC1)[C@H](CO)c1[nH]c3cc(OC)ccc3c12
    11.7	17.9
6. C[C@H](NC(=O)C[C@@H]1C[C@H]2c3cc(NC(=O)CC4CC4)ccc3O[C@H]2[C@@H](CO)O1)c1ccccc1
    8.8	11.9
7. C[C@H]1CN([C@@H](C)CO)C(=O)c2cc(-c3cccnc3)cnc2O[C@@H]1CN(C)C(=O)Nc1ccc(C(F)(F)F)cc1
    4.0	7.3
8. C[C@@H]1CN([C@@H](C)CO)S(=O)(=O)c2ccc(-c3cccc(C#N)c3)cc2O[C@H]1CN(C)Cc1ccccn1
    2.2	-6.3
9. COc1cccc(S(=O)(=O)N(C)C[C@@H]2Oc3cc(C#CCC(C)C)ccc3S(=O)(=O)N([C@@H](C)CO)C[C@@H]2C)c1
    -6.5	-11.4
10. C[C@@H]1CCCCO[C@@H](CN(C)CC2CC2)[C@H](C)CN([C@@H](C)CO)C(=O)c2cc(NC(=O)Nc3ccc4c(c3)OCO4)ccc2O1
    12.2	16.3
11. C[C@H](CO)N1C[C@H](C)[C@@H](CN(C)Cc2ccc3c(c2)OCO3)Oc2ncc(Br)cc2C1=O
    -1.4	-2.2
12. CC(=O)N1CC(=O)N2[C@@H](CO)[C@H](c3ccc(C#Cc4cccnc4)cc3)[C@@H]2C1
    0.2	8.3
13. C[C@@H]1CN([C@@H](C)CO)C(=O)c2c(c3ccccc3n2C)-c2ccccc2CO[C@@H]1CN(C)C(=O)NC1CCCCC1
    -29.7	-33.5
14. CCC(=O)Nc1ccc2c(c1)C(=O)N(C)C[C@@H](OC)[C@@H](C)CN(C(C)=O)[C@@H](C)CO2
    1.7	4.1
15. C[C@@H]1CN([C@@H](C)CO)C(=O)c2cc(C#Cc3ccccc3F)cnc2O[C@@H]1CN(C)S(C)(=O)=O
    3.8	2.5
16. CN(C)C(=O)C[C@H]1CC[C@H]2[C@H](COc3ccc(NC(=O)C4CCC4)cc3C(=O)N2C)O1
    3.6	15.7
17. O=C(Nc1ccc2c(c1)[C@H]1C[C@@H](CC(=O)N3CCc4ccccc4C3)O[C@H](CO)[C@H]1O2)C1CCOCC1
    11.9	11.7
18. C[C@@H]1CCCCO[C@@H](CN(C)C(=O)CCCN(C)C)[C@H](C)CN([C@@H](C)CO)C(=O)c2cc(NC(=O)Nc3ccc(F)cc3)ccc2O1
    12.0	8.7
19. C[C@@H]1CN([C@H](C)CO)C(=O)c2cc(NC(=O)NC3CCCCC3)ccc2O[C@@H]1CN(C)S(=O)(=O)c1cccs1
    -11.1	-14.6
20. CCC(=O)N1C[C@H](C)[C@@H](OC)CN(C)C(=O)c2ccc(NS(C)(=O)=O)cc2OC[C@H]1C
    7.0	5.2
21. C[C@H](CO)N1C[C@H](C)[C@@H](CN(C)C(=O)Cc2ccccc2)Oc2ncc(C#Cc3ccccc3F)cc2C1=O
    /	?
22. COc1ccc(S(=O)(=O)Nc2cccc3c2O[C@H](CN(C)S(=O)(=O)c2cccs2)[C@H](C)CN([C@@H](C)CO)C3=O)cc1
    8.1	3.6
23. COc1ccc(S(=O)(=O)N(C)C[C@H]2Oc3ccc(NC(=O)CCCN(C)C)cc3C(=O)N([C@@H](C)CO)C[C@@H]2C)cc1
    4.0	16.3
24. C[C@@H]1CN([C@@H](C)CO)C(=O)c2cc(-c3ccccc3F)cnc2O[C@H]1CN(C)C(=O)NC1CCCC1
    0.2	7.7
25. COc1ccccc1-c1ccc(C2[C@H]3CNC[C@@H]2N3S(=O)(=O)c2ccccc2)cc1 (stereo not given in full)
    11.4&2.5	13.0&2.5
26. CCS(=O)(=O)N1CCCCN2[C@H](CO)[C@H](c3ccc(-c4ccccc4C)cc3)[C@H]2C1
    -11.6	-19.2
27. C[C@@H]1CN([C@H](C)CO)C(=O)c2cccc(NS(C)(=O)=O)c2O[C@H]1CN(C)Cc1ccc(C(=O)Nc2ccccc2N)cc1
    2.0	5.8
28. C[C@@H]1CN([C@H](C)CO)C(=O)Cc2cc(NC(=O)Cn3cnnn3)ccc2O[C@H]1CN(C)C(=O)Nc1ccccc1
    7.4	9.1
29. CO[C@H]1CN(C)C(=O)c2ccc(NS(=O)(=O)c3ccc(Oc4ccccc4)cc3)cc2OC[C@@H](C)NC[C@H]1C
    -3.2	-12.9
30. COCC#Cc1ccc2c(c1)O[C@H](CN(C)C(=O)C1CCC1)[C@H](C)CN([C@@H](C)CO)S2(=O)=O
    10.6	1.9
31. CCCN1[C@@H]2c3ccc(-c4cccc(F)c4)c(=O)n3C[C@H]1[C@H](CO)[C@H]2C(=O)NCC
    11.4	16.4
32. C[C@H]1CN([C@@H](C)CO)C(=O)c2cc(C#CC3CCCCC3)cnc2O[C@@H]1CN(C)Cc1cccnc1
    -22.4	-24.7
33. CO[C@H]1CN(C)C(=O)c2cc(NC(=O)Nc3c(C)noc3C)ccc2OC[C@H](C)N(C)C[C@H]1C
    3.8	10.3
34. C[C@@H]1CN([C@@H](C)CO)C(=O)c2cccc(NS(=O)(=O)c3ccccc3)c2O[C@@H]1CN(C)Cc1ccc2c(c1)OCO2
    -0.5	-3.7
35. C[C@@H]1CCCCO[C@H](CN(C)C(=O)c2ccccc2)[C@H](C)CN([C@@H](C)CO)C(=O)c2cc(NC(=O)CCC(F)(F)F)ccc2O1
    -18.1	-20.5
36. O=C(NC1CCCC1)N1CCCCN2[C@@H](CO)[C@@H](c3ccc(-c4ccccc4)cc3)[C@@H]2C1
    /	?
37. CCCN1[C@@H]2Cn3c(ccc(-c4cccc(F)c4)c3=O)[C@H]1[C@@H](C(=O)NCC1CC1)[C@@H]2CO
    5.6	2.6
38. CC=Cc1ccc2n(c1=O)C[C@@H]1[C@@H](CO)[C@H](C(=O)NC3CCCCC3)N(C(=O)C3CC3)[C@H]21 (mixture of isomers)
    -12.9	-1.7
39. CO[C@H]1CN(C)C(=O)c2ccc(NC(=O)C3CC3)cc2OC[C@H](C)N(C(C)=O)C[C@@H]1C
    1.7	9.5
40. O=C(Nc1ccc2c(c1)[C@@H]1C[C@H](CC(=O)N3CCc4ccccc4C3)O[C@H](CO)[C@@H]1O2)C1CCC1
    -2.5	-0.3
41. Cc1ccc(-c2ccc([C@H]3[C@@H](CO)N4C(=O)CN(C(=O)Nc5cccc(F)c5)C[C@@H]34)cc2)cc1
    /	?
42. C[C@@H]1CN([C@@H](C)CO)C(=O)c2ccccc2-c2ccccc2CO[C@@H]1CN(C)C(=O)Oc1ccccc1
    0.0	7.8
43. CC(C)NC[C@H]1[C@@H](c2ccc(-c3cccc(F)c3)cc2)[C@@H](CO)N1CC1CC1
    -13.1	-31.0
44. C[C@H]1CN([C@@H](C)CO)C(=O)c2cccc(NS(=O)(=O)c3ccc(Cl)cc3)c2O[C@@H]1CN(C)Cc1ccncc1
    10.6	9.0
45. CO[C@H]1CN(C)C(=O)c2cc(NC(=O)Nc3ccccc3)ccc2OC[C@@H](C)N(C(=O)Nc2c(C)noc2C)C[C@@H]1C
    2.5	6.7
46. CO[C@@H]1CN(C)C(=O)c2cc(NC(=O)C3CCC3)ccc2OC[C@@H](C)N(Cc2cccnc2)C[C@@H]1C
    3.6	5.3
47. CO[C@H]1CN(C)C(=O)c2ccc(NS(C)(=O)=O)cc2OC[C@H](C)N(C(=O)C2CCC2)C[C@H]1C
    14.0	16.3
48. C[C@@H]1CN([C@H](C)CO)C(=O)Cc2cc(NC(=O)Nc3ccc(F)cc3)ccc2O[C@@H]1CN(C)Cc1ccc(Oc2ccccc2)cc1
    -1.8	-13.1
49. C[C@H](CO)N1C[C@H](C)[C@@H](CN(C)C(=O)Nc2ccccc2)Oc2c(NC(=O)Nc3ccc(C(F)(F)F)cc3)cccc2C1=O
    /	?
50. CCNC(=O)[C@H]1[C@H](CO)[C@H]2Cn3c(ccc(/C=C/c4ccccc4)c3=O)[C@@H]1N2C(=O)C1CCC1
    12.9	11.2
51. CCCC(=O)Nc1ccc2c(c1)C(=O)N(C)[C@H]1CC[C@H](CC(=O)NC3CCCC3)O[C@@H]1CO2
    9.0	11.9
52. C[C@@H]1CN([C@H](C)CO)S(=O)(=O)c2ccc(C#C[C@@H](C)O)cc2O[C@H]1CN(C)Cc1cccnc1
    2.9	10.9
53. C[C@H]1CN([C@@H](C)CO)C(=O)c2cc(-c3cccc(C#N)c3)cnc2O[C@@H]1CN(C)C(=O)C1CCC1
    11.2	25.6
54. O=C(N[C@H]1CC[C@@H](CCNS(=O)(=O)Cc2ccccc2)O[C@H]1CO)c1cnccn1
    2.1	-3.3
55. O=C([C@@H]1N[C@@H]2c3ccc(C4=CCCC4)c(=O)n3C[C@@H]2[C@H]1CO)N1CCc2ccccc2C1
    5.6	-3.0
56. COc1ccc([Si](C)(C)[C@H]2[C@H](CCO)O[C@@]3(C(=O)N(Cc4ccccc4)c4ccc(N5CCC5=O)cc43)[C@@H]2C)cc1
    /	?
57. O=C(c1cccnc1)N1CC2(C1)[C@@H](c1ccccc1)[C@@H](CO)N2C(=O)c1cccnc1
    24.7	2.1
58. C[C@H](CO)N1C[C@H](C)[C@H](CN(C)Cc2ccccn2)Oc2cc(Br)ccc2S1(=O)=O
    -0.1	8.5
59. C[C@@H]1CCCCO[C@@H](CN(C)Cc2ccc(C(=O)O)cc2)[C@H](C)CN([C@H](C)CO)C(=O)c2cc(NC(=O)NC3CCCCC3)ccc2O1
    4.8	16.0
60. C[C@H](CO)N1C[C@H](C)[C@H](CN(C)Cc2ccccc2)Oc2ccc(NS(=O)(=O)c3cn(C)cn3)cc2CC1=O
    4.0	7.3

Entries of single compounds, quoted from the list.
`Cc1ccc(-c2ccc([C@H]3[C@@H](CO)N4C(=O)CN(C(=O)Nc5cccc(F)c5)C[C@@H]34)cc2)cc1` in the list: Vaccinia stage Venus = /; Vaccinia stage = ?
`C[C@H]1CN([C@@H](C)CO)C(=O)c2cc(-c3cccc(C#N)c3)cnc2O[C@@H]1CN(C)C(=O)C1CCC1` in the list: Vaccinia stage Venus = 11.2; Vaccinia stage = 25.6

Later entries
Values run as follows: Vaccinia stage Venus	Vaccinia stage
61. C[C@H](CO)N1C[C@H](C)[C@H](CN(C)C)Oc2ccc(NC(=O)Cn3cnnn3)cc2CC1=O
    5.7	8.5
62. C[C@@H](NC(=O)C[C@H]1CC[C@@H]2[C@H](COc3ccc(NC(=O)C4CCOCC4)cc3C(=O)N2C)O1)c1ccccc1
    3.9	10.2
63. CN1CCN(C(=O)C[C@@H]2CC[C@@H]3[C@H](COC[C@@H](O)CN3Cc3cccc(Cl)c3)O2)CC1
    -2.6	-1.8
64. Cc1ccccc1S(=O)(=O)N[C@H]1CC[C@H](CCn2cc(Cc3ccccc3)nn2)O[C@H]1CO
    13.9	1.8
65. C[C@@H]1CN([C@@H](C)CO)C(=O)c2cccc(NC(=O)C3CCOCC3)c2O[C@@H]1CN(C)CC1CC1
    11.1	11.9
66. CS(=O)(=O)Nc1ccc2c(c1)[C@@H]1C[C@@H](CC(=O)NCc3cccnc3)O[C@@H](CO)[C@@H]1O2
    -2.4	3.6
67. C[C@@H]1CCCCO[C@H](CN(C)S(=O)(=O)c2cn(C)cn2)[C@@H](C)CN([C@@H](C)CO)C(=O)c2cc(NS(=O)(=O)c3ccccc3)ccc2O1
    5.0	10.1
68. C[C@H](CO)N1C[C@H](C)[C@@H](CN(C)C(=O)C2CCCCC2)Oc2ncc(-c3cccc(F)c3)cc2C1=O
    -12.6	-22.2
69. COCC#Cc1cnc2c(c1)C(=O)N([C@@H](C)CO)C[C@H](C)[C@H](CN(C)Cc1ccc3c(c1)OCO3)O2
    15.0	16.0
70. O=C(C[C@@H]1CC[C@H]2[C@@H](COC[C@H](O)CN2Cc2cccc(C(F)(F)F)c2)O1)NCc1ccccc1
    -9.8	-16.1
71. CO[C@H]1CN(C)C(=O)c2ccc(NS(=O)(=O)c3ccccc3C)cc2OC[C@@H](C)N(C)C[C@@H]1C
    -0.9	-7.1
72. CN1C(=O)[C@@H]2[C@@H](C[C@]3(COc4ccccc4)OC[C@H]2/C3=C\c2ccccc2)C1=O
    -2.4	4.3
73. C[C@H](CO)N1C[C@H](C)[C@@H](CN(C)S(=O)(=O)c2ccc(F)cc2)OCCCC[C@H](C)Oc2ccc(NS(=O)(=O)c3ccc(Cl)cc3)cc2C1=O
    /	?
74. NCC[C@H]1CC[C@H](NC(=O)Cc2ccncc2)[C@H](CO)O1
    11.0	7.1
75. CCC(=O)N(C)C[C@H]1Oc2cc(-c3ccc(C#N)cc3)ccc2S(=O)(=O)N([C@H](C)CO)C[C@H]1C
    -5.8	-7.0
76. O=C(c1ccncc1)N1CC2(C1)[C@H](c1ccccc1)[C@H](CO)N2C(=O)c1ccncc1
    8.9	1.6
77. COc1ccccc1-c1ccc([C@H]2[C@H](CO)N3CCCCN(C(=O)c4ccncc4)C[C@@H]23)cc1
    2.3	13.5
78. O=C(C[C@@H]1C=C[C@H](NC(=O)Cc2cccnc2)[C@@H](CO)O1)NCc1ccc2c(c1)OCO2
    11.9	8.3
79. C[C@@H]1CCCCO[C@H](CN(C)C(=O)c2ccncc2)[C@@H](C)CN([C@H](C)CO)C(=O)c2cc(NS(C)(=O)=O)ccc2O1
    10.6	7.3
